From PubChem BioAssay
KCNQ2 block – KCNQ2 channel blockers in CHO-K1 cells – cell-based, FluxOR thallium flux, B-score, primary screen (AID 2156). 20 min; active compounds read low; only compounds with negative scores are shown here; some inactives read as strong as hits. O88943. 1.1% of 310,000 active. B-score at 10 µM;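 active = fluorescence ratio B-score at most minus 3 library SDs, with starting brightness B-score within 2 library SDs, cut at about -5.5 in these data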
Target sequence (O88943 whole entry, looked up): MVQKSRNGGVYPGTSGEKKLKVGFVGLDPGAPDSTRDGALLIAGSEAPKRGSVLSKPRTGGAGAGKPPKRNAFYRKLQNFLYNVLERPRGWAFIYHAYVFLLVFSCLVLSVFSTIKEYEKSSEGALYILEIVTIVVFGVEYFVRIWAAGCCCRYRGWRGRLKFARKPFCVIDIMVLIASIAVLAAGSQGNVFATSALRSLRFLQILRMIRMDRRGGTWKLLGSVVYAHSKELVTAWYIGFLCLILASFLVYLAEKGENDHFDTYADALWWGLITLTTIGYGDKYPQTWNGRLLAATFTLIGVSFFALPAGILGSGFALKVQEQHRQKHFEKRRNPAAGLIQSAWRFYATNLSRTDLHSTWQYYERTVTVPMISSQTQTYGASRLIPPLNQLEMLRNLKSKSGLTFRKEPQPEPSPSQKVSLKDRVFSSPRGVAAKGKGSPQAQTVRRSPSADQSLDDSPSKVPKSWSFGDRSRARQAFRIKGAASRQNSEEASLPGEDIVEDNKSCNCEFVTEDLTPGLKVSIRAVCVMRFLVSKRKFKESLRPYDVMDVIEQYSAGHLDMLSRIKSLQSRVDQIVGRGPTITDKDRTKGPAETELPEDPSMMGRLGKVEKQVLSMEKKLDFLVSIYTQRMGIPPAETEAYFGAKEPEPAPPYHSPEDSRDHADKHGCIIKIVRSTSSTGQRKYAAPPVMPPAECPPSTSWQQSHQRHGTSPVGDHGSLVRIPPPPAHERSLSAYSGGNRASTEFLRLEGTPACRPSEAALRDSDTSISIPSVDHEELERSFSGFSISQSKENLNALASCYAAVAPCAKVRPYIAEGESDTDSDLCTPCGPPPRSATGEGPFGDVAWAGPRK
KCNQ2 block baseline – further read-out of KCNQ2 block, marked with its call; B-score; measured here: initial fluorescence intensity artifact check;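 brightness before thallium and not channel activity; 0 = typical well and far values either way flag optical interference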
Starred values were filed as active, the others as inactive.

For CN1CCN(c2ccccc2NS(=O)(=O)c2ccc3c(c2)CCN3C(=O)C2CCC2)CC1 the results were KCNQ2 block inactive and KCNQ2 block baseline 0.17.
Cc1ccc(CNC(=O)CN2C(=O)C3(OCCCO3)c3ccccc32)cc1 was read as KCNQ2 block inactive and KCNQ2 block baseline -1.7.
CCCCC(=O)Nc1ccc(C(=O)NCCc2ccccc2)cc1 was read as KCNQ2 block inactive and KCNQ2 block baseline -1.1.
Screening Cc1ccccc1C(=O)Nc1nnc(CC(=O)N/N=C/c2cn(Cc3ccccc3)c3ccccc23)s1 returned KCNQ2 block inactive and KCNQ2 block baseline -0.8.
Cn1cc2cc(NC(N)=S)ccc2n1 was read as KCNQ2 block inactive and KCNQ2 block baseline -0.13.
`S=C(NNc1ccnc2cc(Cl)ccc12)Nc1ccccc1Cl` gave KCNQ2 block inactive and KCNQ2 block baseline 0.52.
Screening O=C(NCCCn1ccnc1)Nc1ccc2c(c1)OCO2 returned KCNQ2 block inactive and KCNQ2 block baseline 3.4.
Cc1nnsc1S(=O)(=O)c1ccccc1 was read as KCNQ2 block inactive and KCNQ2 block baseline 0.49.
`COc1ccc(COC(=O)c2cccc(S(=O)(=O)N3CCCC3)c2)cc1F` gave KCNQ2 block inactive and KCNQ2 block baseline 0.38.
Screening CN(CC(=O)NCc1ccccc1F)S(=O)(=O)c1ccc(Cl)cc1 returned KCNQ2 block inactive and KCNQ2 block baseline 0.01.
`CCCc1cc(C(=O)Nc2cc(Br)ccc2O)no1` gave KCNQ2 block inactive and KCNQ2 block baseline 0.01.
Screening CC1Cc2cc(/C(O)=C3/C(=O)C(=O)N(Cc4ccncc4)C3c3ccc(N(C)C)cc3)ccc2O1 (stereo not given) returned KCNQ2 block inactive and KCNQ2 block baseline 0.78.
Screening COc1cc(OC)c(-c2nc3ccccc3s2)cc1OC returned KCNQ2 block inactive and KCNQ2 block baseline 0.58.
For O=C1c2cccc3c(N4CCCCC4)ccc(c23)C(=O)N1c1ccccn1 the results were KCNQ2 block inactive and KCNQ2 block baseline 9.3.
CCOC(=O)c1c(-c2ccc(C)o2)csc1NC(=O)CN(C)CC(=O)Nc1ccc(C)cc1 was read as KCNQ2 block inactive and KCNQ2 block baseline 0.24.
COc1ccc(NC(=O)C2CCCN2C(=O)Nc2cccc(F)c2)cc1 (stereo not given) was read as KCNQ2 block inactive and KCNQ2 block baseline -2.2.
For COc1ccc(-c2nc3n(c(=O)c2C#N)CCS3)cc1 the results were KCNQ2 block inactive and KCNQ2 block baseline 0.48.
For CCOc1ccc(NC(=S)NC(=O)/C=C/c2ccc(OC)c(OC)c2)c([N+](=O)[O-])c1 the results were KCNQ2 block inactive and KCNQ2 block baseline -0.1.
For COc1cccc(OC)c1CN(C)C(=O)c1cnccc1C(F)(F)F the results were KCNQ2 block inactive and KCNQ2 block baseline -0.87.
For C=CCNC(=O)c1ccc2c(c1)nnn2C the results were KCNQ2 block inactive and KCNQ2 block baseline -0.51.

Structural class, the entries above with a Cl atom
`S=C(NNc1ccnc2cc(Cl)ccc12)Nc1ccccc1Cl` gave KCNQ2 block inactive and KCNQ2 block baseline 0.52.
Screening CN(CC(=O)NCc1ccccc1F)S(=O)(=O)c1ccc(Cl)cc1 returned KCNQ2 block inactive and KCNQ2 block baseline 0.01.

Gathered by group, those above with four or more nitrogen atoms.
For CN1CCN(c2ccccc2NS(=O)(=O)c2ccc3c(c2)CCN3C(=O)C2CCC2)CC1 the results were KCNQ2 block inactive and KCNQ2 block baseline 0.17.
Screening Cc1ccccc1C(=O)Nc1nnc(CC(=O)N/N=C/c2cn(Cc3ccccc3)c3ccccc23)s1 returned KCNQ2 block inactive and KCNQ2 block baseline -0.8.
Cn1cc2cc(NC(N)=S)ccc2n1 was read as KCNQ2 block inactive and KCNQ2 block baseline -0.13.
`S=C(NNc1ccnc2cc(Cl)ccc12)Nc1ccccc1Cl` gave KCNQ2 block inactive and KCNQ2 block baseline 0.52.
Screening O=C(NCCCn1ccnc1)Nc1ccc2c(c1)OCO2 returned KCNQ2 block inactive and KCNQ2 block baseline 3.4.
For C=CCNC(=O)c1ccc2c(c1)nnn2C the results were KCNQ2 block inactive and KCNQ2 block baseline -0.51.

Further results
For COc1ccccc1N1CSC2=C(C#N)C(c3ccc(SC)cc3)CC(=O)N2C1 (stereo not given) the results were KCNQ2 block inactive and KCNQ2 block baseline 0.74.
Screening Cc1ccc(S(=O)(=O)Nc2cc(C(=O)NCCN3CCCC3)ccc2N2CCCCC2)cc1 returned KCNQ2 block inactive and KCNQ2 block baseline 0.37.
CCN(C(=O)c1cc(S(=O)(=O)N2CCCCC2)c[nH]1)c1ccc(OC)cc1 was read as KCNQ2 block inactive and KCNQ2 block baseline -1.5.
For CCOC(=O)N1CCN(CC(O)COC(CC)c2ccccc2)CC1 (stereo not given) the results were KCNQ2 block inactive and KCNQ2 block baseline 1.7.
`COc1ccc(OC)c(S(=O)(=O)N2CCC(C(=O)Nc3ccc(C)c(C)c3)CC2)c1` gave KCNQ2 block inactive and KCNQ2 block baseline -1.8.
For CC(C)Cc1nnc(NC(=O)CC(C)c2ccccc2)s1 (stereo not given) the results were KCNQ2 block inactive and KCNQ2 block baseline -0.7.
COc1cc(CC(NC(C)=O)C(=O)NC2CCN(c3nc(C)cc(C)c3C#N)CC2)cc(OC)c1 (stereo not given) was read as KCNQ2 block inactive and KCNQ2 block baseline -1.
For O=C(NCC1CCCO1)C1CCC(=O)N1Cc1ccccc1Cl (stereo not given) the results were KCNQ2 block inactive and KCNQ2 block baseline 1.1.
For COCCn1c(Cc2cccn2C)nnc1SCC(=O)NCc1ccc2c(c1)OCO2 the results were KCNQ2 block inactive and KCNQ2 block baseline -0.11.
CCO/C=C1/C(=O)N(CC)c2ccccc21 was read as KCNQ2 block inactive and KCNQ2 block baseline -1.5.
For CN(C)S(=O)(=O)c1ccc(Cl)c(NC(=O)COC(=O)/C=C/c2cnc3ccccc3n2)c1 the results were KCNQ2 block inactive and KCNQ2 block baseline -0.29.
Screening CC(=O)NCC(=O)OCC(=O)c1ccc(C)c(C)c1 returned KCNQ2 block inactive and KCNQ2 block baseline 2.
CCCCCN(C(=O)NC(=O)Nn1cnnc1)S(C)(=O)=O was read as KCNQ2 block inactive and KCNQ2 block baseline 2.2.
For COc1ccc(C)cc1NC(=O)C1CC(=O)N(CCc2ccccc2)C1 (stereo not given) the results were KCNQ2 block inactive and KCNQ2 block baseline 0.64.
`N#Cc1c(=O)c2nc(NCc3ccccc3)ncc2n2ccccc12` gave KCNQ2 block inactive and KCNQ2 block baseline -0.11.
For Cc1ccc(N(CC(=O)NCC2CCCO2)S(=O)(=O)c2ccccc2)c(C)c1 (stereo not given) the results were KCNQ2 block inactive and KCNQ2 block baseline 0.01.
COCCOn1c(SCCOC)nc2ccccc2c1=O was read as KCNQ2 block inactive and KCNQ2 block baseline -0.03.
Screening COC(=O)c1ccc(N)cc1O returned KCNQ2 block inactive and KCNQ2 block baseline 0.86.
For CC(=O)Nc1nc(C)nc(C)c1C(C)=O the results were KCNQ2 block inactive and KCNQ2 block baseline 0.79.
`Cc1cc(C)nc(NC(=O)Cc2ccc(Br)cc2)n1` gave KCNQ2 block inactive and KCNQ2 block baseline -0.62.
`CCC(=O)N1CCc2cc(S(=O)(=O)NC(C(=O)NCc3ccccc3)C(C)C)ccc21` (stereo not given) gave KCNQ2 block inactive and KCNQ2 block baseline 0.65.
`CCC1(CC)C(=O)C2=C3C1[C@H](C(=O)OC)CC(C(=O)OC)C[C@H]3n1c(=O)n(-c3ccccc3)c(=O)n1[C@H]2C` (stereo not given in full) gave KCNQ2 block inactive and KCNQ2 block baseline 1.2.
For NCC(O)COCCC12CC3CC(CC(C3)C1)C2 (stereo not given) the results were KCNQ2 block inactive and KCNQ2 block baseline 1.7.
For CCc1ccc(NC(=O)C(CC)c2ccccc2)cc1 (stereo not given) the results were KCNQ2 block inactive and KCNQ2 block baseline 2.5.
`CCCCNC(=O)[C@@H]1CC=C[C@@H]2CCN(C3CC3)C(=O)[C@@H]21` gave KCNQ2 block inactive and KCNQ2 block baseline 0.03.
`Cc1c(C(=O)N2CCOCC2)c(S(=O)(=O)Nc2cccc(C#N)c2)c(C)n1C` gave KCNQ2 block inactive and KCNQ2 block baseline -0.68.
Screening Cc1cc(C)c(S(=O)(=O)N2CCCC2CNC(=O)c2ccc3c(c2)OCO3)c(C)c1 (stereo not given) returned KCNQ2 block inactive and KCNQ2 block baseline -0.21.
For COc1ccccc1NC(=O)CC1COc2ccccc2O1 (stereo not given) the results were KCNQ2 block inactive and KCNQ2 block baseline -1.4.
For CCOc1ccc(C(C(=O)NC2CCCCC2)N(C(=O)Cc2cccs2)c2ccc(-n3cnnn3)c(OC)c2)cc1 (stereo not given) the results were KCNQ2 block inactive and KCNQ2 block baseline 0.61.
C/C(=N\NC(=O)Cc1ccc(Cl)cc1)c1cccnc1 was read as KCNQ2 block inactive and KCNQ2 block baseline -0.83.
`CN(C)C(=O)CN(C)S(=O)(=O)c1ccc(Cl)cc1` gave KCNQ2 block inactive and KCNQ2 block baseline 0.13.
Oc1ccccc1-c1nc(/C=C/c2ccccc2)nn1-c1ccccc1 was read as KCNQ2 block inactive and KCNQ2 block baseline -0.03.
Screening CC(NC(=S)NCCc1ccccc1)C(c1cccs1)N1CCN(Cc2ccccc2)CC1 (stereo not given) returned KCNQ2 block inactive and KCNQ2 block baseline 0.17.
For O=C(/C(=C/O)N=Nc1ccccc1)c1ccncc1 the results were KCNQ2 block inactive and KCNQ2 block baseline -0.83.
Screening O=C(c1ccc([N+](=O)[O-])cc1)N1CCSC1c1ccccc1 (stereo not given) returned KCNQ2 block inactive and KCNQ2 block baseline -1.5.
For CCOc1cc2c3c(c1)C1(C(=O)N3C(C)(C)CC2C)C(C#N)=C(N)N2C(=C1C#N)Nc1ccccc12 (stereo not given) the results were KCNQ2 block inactive and KCNQ2 block baseline 0.56.
For CCN1C(=O)[C@H]2[C@@H](c3ccc(-c4ccc(Cl)c(Cl)c4)c(OC)c3)N[C@@](C)(C(=O)OC)[C@H]2C1=O the results were KCNQ2 block inactive and KCNQ2 block baseline 0.07.
CN(CCOc1ccccc1)C(=O)CCc1c[nH]c2ccccc12 was read as KCNQ2 block inactive and KCNQ2 block baseline -0.34.
Screening C/C=C/C=C/C(=O)N1CC[C@]23c4ccccc4N[C@H]4N(C)c5cccc6c5[C@]42CCN([C@H]6C2OC2(C)C)[C@H]13 (stereo not given in full) returned KCNQ2 block inactive and KCNQ2 block baseline -2.4.
Cc1c(C(=O)N2CCC(Cc3ccccc3)CC2)sc2ncnc(N3CCC(C)CC3)c12 was read as KCNQ2 block inactive and KCNQ2 block baseline 1.4.
Screening CCN(CC)CCN1C(=O)C(=O)/C(=C(/O)c2ccccc2)C1c1ccccc1F (stereo not given) returned KCNQ2 block inactive and KCNQ2 block baseline -1.9.
CCc1ccc(NC(=S)NCc2cccnc2)cc1 was read as KCNQ2 block inactive and KCNQ2 block baseline -0.39.
`CC(C)(CO)NCc1ccccc1OCC(=O)Nc1ccccc1` gave KCNQ2 block inactive and KCNQ2 block baseline -0.49.
For CCCn1c(=N)c(S(=O)(=O)c2ccccc2)cc2c(=O)n3cccc(C)c3nc21 the results were KCNQ2 block inactive and KCNQ2 block baseline -0.34.
Screening CCOC(=O)C1CCCN(S(=O)(=O)c2cc3c(cc2Cl)NC(=O)CO3)C1 (stereo not given) returned KCNQ2 block inactive and KCNQ2 block baseline 0.38.
`O=C(OCC(=O)N1CCN(C(=O)c2ccco2)CC1)c1ccccc1NCCO` gave KCNQ2 block inactive and KCNQ2 block baseline -0.12.
For CC(C)c1ccc(NC(=O)C2CCCCC2C(=O)O)cc1 (stereo not given) the results were KCNQ2 block inactive and KCNQ2 block baseline -3.1.
For C=CCNc1nc(C(=O)OCC(=O)c2ccc(F)cc2)cs1 the results were KCNQ2 block inactive and KCNQ2 block baseline 1.1.
Screening CCOC(=O)C1CCN(C(=O)CSc2ccc(Cl)cc2)CC1 returned KCNQ2 block inactive and KCNQ2 block baseline 0.08.
`Cc1ccc(NC(=O)C2CC(=O)N(Cc3ccccc3)C2)nc1` (stereo not given) gave KCNQ2 block inactive and KCNQ2 block baseline 2.
Screening O=C1CC(c2ccc(S(=O)(=O)NCc3ccccc3)cc2)CN1 (stereo not given) returned KCNQ2 block inactive and KCNQ2 block baseline -0.15.
Screening O=C(COC(=O)CNS(=O)(=O)c1ccccc1)Nc1ccc(Cl)cn1 returned KCNQ2 block inactive and KCNQ2 block baseline 1.9.
`Cc1cc(C)cc(NC(=S)N2CCN(c3ncc(C(F)(F)F)cc3Cl)CC2)c1` gave KCNQ2 block inactive and KCNQ2 block baseline -0.72.
Screening O=C(CN1C(=O)CSc2ccc(S(=O)(=O)N3CCOCC3)cc21)N1CCCCC1 returned KCNQ2 block inactive and KCNQ2 block baseline 0.05.
For CC1CN(C(=S)NC(=O)C2CCCCC2)CC(C)O1 (stereo not given) the results were KCNQ2 block inactive and KCNQ2 block baseline -1.5.
Screening COc1cc(Br)cc(/C=C/c2ccc3cccc(O)c3n2)c1O returned KCNQ2 block inactive and KCNQ2 block baseline -3.2.
Cc1ccc(C(=O)N(CN2CCCC2=O)c2ccccc2)cc1C was read as KCNQ2 block inactive and KCNQ2 block baseline -0.29.

Some of the compounds tested; count on the stated rates, not on these rows.
